Screens: PubChem BioAssay, ICCB-Longwood Screening Facility, Harvard Medical School
S aureus helic: S. aureus DNA helicase inhibition. purified S. aureus helicase, fluorescence unwinding assay; about half of the hits fall short of the stated cut. inhibition, %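 (tested at about 80 µM)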. 0.05% of 120,000 active. AID 485395;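 active = both duplicates at 50% or more, or one of them with a favoured structure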;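 also: 0% = mean of negative control wells and 100% = mean of positive control wells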
MgrA-DNA mod: modulators of Staphylococcus aureus MgrA DNA binding; 0.13% of 84,000 active; inhibition, %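 (about 10 µg/mL by stock and volumes)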; fluorescence polarization; AID 602314;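 active = above 50% in either of two replicates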;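 also: 0% = protein plus DNA without compound and 100% = DNA alone without protein; higher means less MgrA bound to DNA so lower polarization; one replicate is shown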
Numbers without * were called inactive; / = not tested or not shown.

SMILES	S aureus helic	MgrA-DNA mod
CC(NC(=O)c1ccco1)C(=O)N(C)Cc1ccc(C(F)(F)F)cc1 (stereo unspecified)	4	/
CCOC(=O)c1nc(SCC(=O)Nc2cc(Cl)cc(Cl)c2)[nH]c1C	/	-0.5
CCOC(=O)c1[nH]c(I)c(C(=O)OCC)c1C	-7	1.8
NC(=O)C1CCN(c2cnc3ccccc3n2)CC1	/	1.1
O=C(O)c1cccc(NCc2cccnc2)c1	8	/
Cc1ccc(-c2cc(C(F)(F)F)c3c(=O)[nH]c(N)nc3n2)cc1	-5	/
NC(=O)c1c(NC(=O)CN2C(=O)S/C(=C\c3ccc(F)cc3)C2=O)sc2c1CCCC2	/	-0.6
COC(=O)/C=C1\SC(=Nc2ccc(OC)cc2)NC1=O	1	0.2
CCC(C)c1ccccc1N=Cc1cccs1 (stereo unspecified)	-13	0.8
COc1ccc(-c2cc(C(=O)N(C)Cc3ccccc3)no2)cc1S(=O)(=O)N1CCOCC1	19	/
C(=N\C(/N=C/c1ccccc1)c1ccccc1)/c1ccccc1	13	-1.8
CC(C)NS(=O)(=O)c1ccc(N=Cc2c(O)n(C)c(=O)n(C)c2=O)cc1	4	/
O=C(NCc1ccc(Cl)cc1)c1ccc2nc[nH]c2c1	-3	/
CC(/C(O)=C(\C#N)c1nc2ccccc2s1)N1C(=O)c2ccccc2C1=O (stereo unspecified)	-27	/
COc1ccc(CCNC(=O)c2csc3c2CCCC3)cc1OC	-20	/

Three of the compounds above, with bars between the fields.
SMILES | S aureus helic | MgrA-DNA mod
CCC(C)c1ccccc1N=Cc1cccs1 (stereo unspecified) | -13 | 0.8
COc1ccc(-c2cc(C(=O)N(C)Cc3ccccc3)no2)cc1S(=O)(=O)N1CCOCC1 | 19 | /
C(=N\C(/N=C/c1ccccc1)c1ccccc1)/c1ccccc1 | 13 | -1.8

Following part:
SMILES	S aureus helic	MgrA-DNA mod
CC(=O)Nc1cccc(NC(=O)c2c[nH]c(=O)n(-c3ccccc3)c2=O)c1	17	/
Cc1cc(C)n(-c2nc3ccccc3nc2N2CCN(S(=O)(=O)c3ccc(F)c(C)c3)CC2)n1	-1	-2.0
O=C(Cn1nnc2ccccc2c1=O)NC1CCCCC1	-2	20
COc1ccc(/C(O)=C(/C#N)c2nc3ccccc3s2)cc1	-15	/
CCCC(CCC)=NNc1ncnc2sc(C)c(C)c12	-8	/
CC(NC(=O)c1cccc(S(=O)(=O)N(C)C)c1)c1ccccc1 (stereo unspecified)	-22	-1.2
CCC(=O)Nc1ccc(-c2nn3c(CC)nnc3s2)cc1	13	2.9
C=CCc1c(C)nc(SC)nc1Nc1ccccc1	15	-1.2
COc1ccc(/C=N/c2nc3ccccc3[nH]2)cc1	/	-0.6
COC(=O)c1ccc(NC(=O)CSC2=NC(c3ccccc3)CC(=O)N2)cc1 (stereo unspecified)	17	5.6
CNC(=O)NC1CC(=O)N(c2ccc(OC)cc2)C1 (stereo unspecified)	12	/
O=C(NCCc1nc(-c2ccc(Cl)cc2)no1)c1cccs1	6	-3.5
O=c1c2c3nc4ccccc4nc3n(C3CCCC3)c2ncn1Cc1ccccc1	9	3.1
CCCc1ccc(O)c(N)c1	-4	-1.4
Cn1c(SCC(=O)c2ccc(F)cc2)nnc1-c1ccco1	/	-3.6

In another format: entries from further up
> CC(C)NS(=O)(=O)c1ccc(N=Cc2c(O)n(C)c(=O)n(C)c2=O)cc1
- S aureus helic: 4
- MgrA-DNA mod: /
> O=C(NCc1ccc(Cl)cc1)c1ccc2nc[nH]c2c1
- S aureus helic: -3
- MgrA-DNA mod: /
> CC(/C(O)=C(\C#N)c1nc2ccccc2s1)N1C(=O)c2ccccc2C1=O (stereo unspecified)
- S aureus helic: -27
- MgrA-DNA mod: /
> COc1ccc(CCNC(=O)c2csc3c2CCCC3)cc1OC
- S aureus helic: -20
- MgrA-DNA mod: /

Other records follow.
SMILES	S aureus helic	MgrA-DNA mod
CCc1nn2c(=O)cc(COc3ccccc3C)nc2s1	20	/
COC(=O)c1cc(-c2ccccc2)sc1NC(=S)Nc1ccn(C)n1	6	-4.8
CC1CN(CN2C(=O)C(=Nc3ccc4ccccc4c3)c3ccccc32)CC(C)O1 (stereo unspecified)	8	-3.2
COC(=O)c1cc(Cl)c(C(=O)OC)cc1Cl	14	/
CC1CC(=O)N(c2cc(C(F)(F)F)cc(C(F)(F)F)c2)C1=O (stereo unspecified)	/	-0.8
Fc1ccc(CNc2nc3c(c(C(F)(F)F)n2)CCCCC3)cc1	24	/
COc1ccc(N2CCN(C=C3C(=O)NC(=O)NC3=O)CC2)cc1	5	/
CN(C)/C=N/n1cnc2sc3c(c2c1=O)CCCC3	/	0.9
O=c1c(Oc2ccccc2)coc2cc(O)ccc12	3	/
CCOC(=O)Cc1c(C)nc2c(-c3ccccc3)c(C(F)(F)F)nn2c1C	11	0.8
CN1CCN(Cc2cc(Cl)c3cccnc3c2O)CC1	-3	/
CCCNC(=O)C1CCN(C(=O)c2ccccc2Cl)CC1	-7	-2.0
CC1=CC(=C(C#N)C#N)C=C(C)N1c1cccnc1	-12	/
CCSc1nc(C)c(CC)c(C)c1C(N)=O	4	4.3
CC1(C)Cn2c(nnc2-c2ccccc2)S1	10	-0.4
CN1CCN(C(=S)C(=O)NCc2ccccc2)CC1	6	-1.1
COc1ccc(CN2Cc3ccccc3C2)cc1	-16	/
COC(Cn1c(-c2ccccc2)n[nH]c1=S)OC	/	-1.1
O=S(=O)(c1ccccc1)c1nc(N2CCCc3ccccc32)sc1Cl	10	4.0
CC(C)(CC(=O)O)CC(=O)Nn1c(=S)[nH]c2ccccc2c1=O	-4	-0.4
Cc1ccc2c(c1)=C(c1sc(=S)n(CC(=O)O)c1O)C(=O)N=2	-1	/
CC(C)Nc1ccc(-n2nc3ccccc3[n+]2[O-])cc1	-1	1.1
CCOC(=O)c1cnc(Sc2ccc(C(F)(F)F)cc2[N+](=O)[O-])nc1N	/	-1.9
Cc1ccc(N=C(C#N)C2=C(O)c3ccccc3C2=O)c(Cl)c1	/	0.8
COc1ccc(OC)c(-c2n[nH]c(C(=O)O)c2C)c1	6	-2.6
CCCN(C(=O)c1cc2cc3ccc(OC)cc3nc2o1)c1ccc(CC)cc1	13	-0.5
CCOC(=O)c1cnc2ccc(F)cc2c1NCc1cccnc1	5	-5.6
CCOC(=O)CSc1nnc(NC(=O)C2CCCCC2)s1	-16	/
CC(C)(C)c1ccc(-c2cc(NS(=O)(=O)c3ccccc3)c(C(N)=O)s2)cc1	/	4.2
CC1(C)CC(=O)C=C(Nc2ccc(N3CCOCC3)cc2)C1	15	-1.2
CCS(=O)(=O)Nc1ccc(Cl)cn1	7	-2.5
CC(NC(=O)CSc1nnnn1C)c1ccccc1 (stereo unspecified)	-6	/
CCOC(=O)c1ccc(CN(Cc2ccccc2C)S(=O)(=O)c2ccc3c(c2)OCCO3)cc1	4	-0.4
O=C(c1noc2c1CCCC2)N1CCCCC1	8	0.4
Cc1cccc(N2CCN(C(=O)c3ccncc3)CC2C)c1 (stereo unspecified)	-8	/
Clc1ccc(COc2cccc3cccnc23)cn1	/	-3.2
CCc1ccccc1NC(=O)C(CC)Sc1nc2ccncc2[nH]1 (stereo unspecified)	2	-1.1
CCn1cc([N+](=O)[O-])nc1C	/	0.9
CC1CC(C(F)F)n2nc(C(=O)O)cc2N1 (stereo unspecified)	4	-2.7
Cc1ccc2c(CC(=O)N3CCc4ccccc43)coc2c1	15	1.1
CCCCn1cnc2c(c1=O)c1nc3ccccc3nc1n2CC1CCCO1 (stereo unspecified)	-16	3.8
Cc1ccn2cc(CNC(=O)c3ccccc3)nc2c1	5	0.9
COc1ccccc1CC(=O)NC(=O)c1ccccc1O	/	0.2
Cn1ccnc1SCc1cc(=O)c(OC(=O)c2ccccc2)co1	7	/
O=C(O)CC1SC(=O)N(Cc2ccccc2)C1=O (stereo unspecified)	2	-5.0

Complete entries from above. Order of values: S aureus helic, MgrA-DNA mod
`O=C(O)CC1SC(=O)N(Cc2ccccc2)C1=O` (stereo unspecified) across the screens: 2, -5.0
`CCc1ccccc1NC(=O)C(CC)Sc1nc2ccncc2[nH]1` (stereo unspecified) across the screens: 2, -1.1
`Clc1ccc(COc2cccc3cccnc23)cn1` across the screens: /, -3.2

Carrying on:
SMILES	S aureus helic	MgrA-DNA mod
O=C(CSc1nc2ccccc2c(=O)n1Cc1ccco1)c1ccccc1	/	1.3
CN1CCN(C(=O)C(C(=O)N2CCN(C)CC2)C23CC4CC(CC(C4)C2)C3)CC1	10	-0.6
Nc1nnc(SCC(=O)Nc2ccc(F)c(F)c2F)s1	/	2.4
CCC(NC(=O)Nc1cc(Cl)c(OC)cc1OC)c1c(-n2cccc2)sc2c1CCN(C)C2 (stereo unspecified)	13	/
O=C(COC(=O)c1ccc(O)cc1)NCc1ccccc1	-20	0.9
CN(c1ccc(O)cc1)S(=O)(=O)c1ccc(Cl)c(C(F)(F)F)c1	-4	/
N#CC1(NC(=O)Cn2cnc3c(Cl)cc(Cl)cc3c2=O)CCCCC1	-3	/
CCOc1ccccc1NC(=O)C(NCc1ccco1)c1ccccc1 (stereo unspecified)	-18	/
CNC(=O)NC(=O)C(C)N1CCN(c2ccccc2)CC1 (stereo unspecified)	6	/
CCCCC(=O)Nc1ccc(C(=O)N2CCN(C)CC2)cc1	-10	1.2
CNC(=O)c1csc(Cc2c(Cl)sc3ccc(Cl)cc23)n1	/	-1.4
CC(C)(C)OC(=O)N1CCN(C(=O)Nc2ccc(C(=O)O)cc2)CC1	2	-2.1
C=CCN(C(=O)c1ccc(OC)cc1)c1nnc(-c2ccncc2)s1	7	/
O=C(Nc1ccc(-c2nc3ccccc3o2)cc1)c1ccc(N2C(=O)C3C4C=CC(C4)C3C2=O)cc1 (stereo unspecified)	/	1.3
Cc1cc(-n2c(C)cc(C(=O)COc3ccc4ccc(=O)oc4c3)c2C)no1	22	/
O=C(c1cccs1)N1CCC(n2cccc2)CC1	/	-1.1
O=C(O)Cc1csc(-c2cnccn2)n1	/	0.2
NC(=O)c1sc(-c2ccsc2)cc1NC(=O)/C=C/c1ccsc1	/	0.8
CN(C)C(=O)COC(=O)c1ccc2ccccc2n1	-1	/
O=C(CCSc1nnnn1-c1ccccc1)Nc1ccc2c(c1)OCO2	-4	/
COC(=O)C1=C(C)NC(C)=C(C(=O)OC)C1c1ccccc1	/	2.3
CCC(=O)Nn1cnc2c(c1=O)C1(CCCCC1)Cc1ccccc1-2	9	-2.1
CSc1ncc(C(=O)Nc2ccnn2Cc2ccccn2)n1-c1ccc(F)cc1	-13	/
CN1C(=O)C(=Cc2cc3c(cc2Cl)OCO3)C(=O)N(C)C1=S	-9	32
O=C(CCc1ccccc1)N1CCN(Cc2ccc3c(c2)OCO3)CC1	12	/
CCCn1c(=NC(=O)C(C)(C)C)sc2cc3c(cc21)OCO3	0	/
Cc1ccc(CN2C(=O)C3CCCN3c3ccc(C#N)cc32)cc1 (stereo unspecified)	/	-1.0
CC(Sc1nnnn1-c1ccccc1)C(=O)NCCC1=CCCCC1 (stereo unspecified)	15	/
Cn1c(N)c(C(=O)Cn2cc(S(=O)(=O)N3CCCC3)ccc2=O)c(=O)n(C)c1=O	10	/
COc1ccc(NC(=O)C(NS(=O)(=O)c2ccc3c(c2)oc(=O)n3C)C(C)C)cc1OC (stereo unspecified)	1	/
CCOC(=O)c1sc(NC(=O)c2cc(=O)c3ccccc3o2)cc1C	13	/
COC(=O)c1cc(-c2cccs2)on1	1	0.2
CCN(CC)CCNC(=O)c1c(-c2c(Cl)cccc2Cl)noc1C	/	2.1
O=C(O)COc1ccc(-c2nc3ccccc3s2)cc1	14	/
COc1ccc(C2CC(=O)C3=C(C2)Nc2ccccc2NC3c2cc(OC)c(OC)c(OC)c2)cc1 (stereo unspecified)	/	-1.2
CCOC(=O)N1CCC(NC(=O)CCc2c(C)nc3c(c(C)nn3-c3ccc(C)cc3)c2C)CC1	-14	/
O=C(NCc1ccccc1)C1CCCN(C(=O)N2CCOc3ccccc32)C1 (stereo unspecified)	8	-0.8
CC1(C)OC(=O)C(=C2C3C4CC5C3C(=C3C(=O)OC(C)(C)OC3=O)C3C2C4C53)C(=O)O1 (stereo unspecified)	9	/
COc1cccc(OC(=O)c2cc3ccccc3oc2=O)c1	-16	/
Cc1nc2scc(-c3cccs3)c2c(=S)[nH]1	2	/
CCN(CC)C(=O)CSc1nc(C)cc(C)n1	9	-0.6
Cc1cccn2cc(CNC(=O)c3ccccc3)nc12	7	0.8
Fc1cccc(F)c1CNCC1NCCc2ccccc21 (stereo unspecified)	-5	-2.8
Cc1ccccc1C(=O)Nc1ccc(-c2nc3ccccc3o2)cc1	-20	4.6
O=C(CNC(=O)C1CCCCC1)OCc1cc(-c2ccccc2)on1	-1	/
CC(C)(C)NC(=O)C(C)(C)Oc1ccc(Cl)cc1	-13	/
Nc1cc(Cl)ccc1C(=O)OCC(=O)c1ccc(F)cc1	3	/
COc1ccccc1C1CCN(C(=O)c2ccc(N)cc2)CC1	/	-2.3
OC(CNC1CCCCC1)CN1c2ccccc2Sc2ccccc21 (stereo unspecified)	7	0.1
COCC(C)Nc1ncnc2c1c(-c1ccccc1)cn2-c1ccc(C)c(Cl)c1 (stereo unspecified)	7	1.4
O=C(NN1CC(=O)N(C2CCCC2)C1=O)c1cccc2ncccc12	3	0.4
CC(C)NC(=S)n1cc(C(=O)c2cc(Cl)cc(Cl)c2O)cn1	18	0.6
S=C(NCCc1ccccc1)NNc1nc2ccccc2o1	0	/
CCOC(=O)C1=C(C)N=c2s/c(=C\c3ccc(-c4ccccc4C(=O)O)o3)c(=O)n2C1c1ccc2c(c1)OCO2 (stereo unspecified)	/	-1.3
C/C=C(\C)C(=O)Nc1ccc(N2CCOCC2)cc1	/	-3.4

Only part of the results is shown; rates above refer to the full screens.
